Source: PubChem BioAssay (Center for Chemical Genomics, University of Michigan)
CDC25B CDK2 inh = primary biochemical HTRF screen for blockers of M-phase inducer phosphatase 2 binding to CDK2/cyclin A; P30305+P24941; HTRF CDC25B-CDK2/CyclinA binding, anti-His/anti-Flag; active compounds read high; z-score (no concentration beside the values); hit rate 0.72% among 94,000; AID 1259370, 2018;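 note: score is relative to mean and SD of negative controls; strong numbers were not always called active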
TAR Tat displ = TAR RNA-Tat peptide displacers, HIV-1, primary screen, biochemical, FRET, FAM/TAMRA-labeled Tat; HIV-1 TAR RNA, Tat peptide displacement FRET; active compounds read high; z-score (no concentration beside the values); hit rate 0.6% among 100,000;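 note: score is relative to mean and SD of negative controls; some compounds called inactive have numbers as strong as hits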
Active calls of the source: *; nt = no result given.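 Rule for the calls: active = z-score from 3 up in half or more of its runs; inactive = the rest.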 This is a random part of the collection; 0.9% or so of the library scored in one or more.

SMILES	CDC25B CDK2 inh	TAR Tat displ
CCS(=O)(=O)Nc1ccc(-c2cn3c(C)csc3n2)cc1	nt	-0.16
COc1ccc(OC)c(C2=NN(C(C)=O)C(COc3ccc(Cl)cc3C)O2)c1 (configuration not stated)	nt	1.75
O=C(CSc1ncc(S(=O)(=O)c2ccc(Cl)cc2)c(=O)[nH]1)Nc1ccccc1F	-1.69	-0.74
CC1CCCC(C)N1CCNC(=O)C1CCN(c2ncnc3c2nc2n3CCCCC2)CC1 (configuration not stated)	nt	1.46
CS(=O)(=O)N1CCN(CC(O)Cn2c3ccc(Cl)cc3c3cc(Cl)ccc32)CC1 (configuration not stated)	-0.41	nt
Cc1cc(=O)n2nc(N3CCCC(C(=O)NC(C)C)C3)sc2n1 (configuration not stated)	-1.41	-0.13
O=C(O)COCCN1CCN(C(c2ccccc2)c2ccc(Cl)cc2)CC1 (configuration not stated)	-1.19	nt
CCOC(=O)c1oc2ccc(S(=O)(=O)NC3COc4ccc(OC)cc4C3)cc2c1C (configuration not stated)	nt	0.43
CC(C)CCNc1nccn(-c2ccc(F)c(Cl)c2)c1=O	nt	-0.43
CCOc1ccc(OCC)c(NC(=O)c2cn3c4c(ccc(Cl)c4c2=O)OC(C)C3)c1 (configuration not stated)	nt	1.26

A run of entries from the list above:
SMILES	CDC25B CDK2 inh	TAR Tat displ
O=C(CSc1ncc(S(=O)(=O)c2ccc(Cl)cc2)c(=O)[nH]1)Nc1ccccc1F	-1.69	-0.74
CC1CCCC(C)N1CCNC(=O)C1CCN(c2ncnc3c2nc2n3CCCCC2)CC1 (configuration not stated)	nt	1.46

Next part.
SMILES	CDC25B CDK2 inh	TAR Tat displ
CSC(=NCc1sccc1COc1ccc(Cl)cc1)NC#N	-1.28	nt
CC(C)(C)C(=O)Nc1ccc(-n2cccc(C(=O)NCC3CCCO3)c2=O)cc1 (configuration not stated)	nt	2.15
CSc1sccc1/C=N/O	-1.99	nt
Cc1nc(-c2ccccc2)sc1CCNS(=O)(=O)c1cc(F)ccc1F	nt	2.38
CCCCN1C(=O)C2(/C(=C(/O)c3ccc(OC)c(C)c3)C(=O)C(=O)N2CCOC)c2ccccc21 (configuration not stated)	-0.33	1.14
Cc1cc(NC(=O)C2=C(O)c3ccccc3S(=O)(=O)N2C)no1	nt	0.68
NS(=O)(=O)c1ccc(CNS(=O)(=O)c2cccc3nsnc23)cc1	-1.75	nt
CC1CCN(Cc2nc3c(c(=O)n(C)c(=O)n3C)n2CC(=O)C(C)(C)C)CC1	-0.53	0.94
Cc1c(NC(=O)C2c3ccccc3Oc3ccccc32)c(=O)n(-c2ccccc2)n1C	0.7	nt
COc1ccc(NS(=O)(=O)c2ccc(Br)cc2)cc1	-0.48	0.21
COc1ccc2c(c1)CC(C(=O)NCCCN(C)C1CCCCC1)CO2 (configuration not stated)	nt	0.55
Cc1ccc(C2=CC(c3cccc(Br)c3)n3nc(CCCO)nc3N2)cc1 (configuration not stated)	-2.22	nt
CCOC(=O)CN(C)S(=O)(=O)c1ccsc1C(=O)OC	-0.9	nt
CC(C)C(=O)Nc1ccc2nc(SCC(=O)N3CCc4ccccc43)sc2c1	-1.45	0.98
COc1cc(OC)c(-n2nnc(-c3nc(-c4ccccc4C)no3)c2C)cc1Cl	nt	0.6
CCOC(=O)CNC(=O)CC(C)(C)C	-3.06	nt
CCCCN(C)S(=O)(=O)c1c(C)[nH]c(C)c1C(=O)OCC	nt	1.39
Cc1nc2nc(NCc3cccs3)[nH]n2c(=O)c1CCC(=O)N1CCC(C)CC1	-1.12	-1.57
CCN(C(=O)Nc1cn(C)c(=O)c2ccccc12)c1ccccc1	nt	1.68
Cc1ccccc1OC1C(=O)N(C2CCCC2)C1c1ccc2c(c1)OCO2 (configuration not stated)	-0.4	-1.63
O=S(=O)(c1ccc(-c2ccc(S(=O)(=O)N3CCOCC3)s2)s1)N1CCOCC1	-2.14	nt
COc1ccc(-n2nnnc2C2CCN(S(=O)(=O)c3ccc4c(c3)OCCO4)CC2)cc1	1.02	1.49
Cc1ccc(C)c(NC(=O)C2CC3CCCN3C23C(=O)Nc2ccccc23)c1 (configuration not stated)	nt	-0.89
Cn1c(=O)c2c(nc(CN3CCN(CCO)CC3)n2Cc2cccc(Cl)c2)n(C)c1=O	-0.45	-1.16
COC(=O)c1ccc(C2CC(=O)NC3=C2C(=O)CC(c2ccc(OC)cc2)C3)cc1 (configuration not stated)	-0.57	1.31
CCOC(=O)NC(=S)N(C)C	-0.91	nt
C=CCOc1ccc(C2c3c(-c4ccccc4O)n[nH]c3C(=O)N2Cc2cccnc2)cc1 (configuration not stated)	-0.35	1.4
Cc1ccc(C(c2c(C)n(C)n(-c3ccccc3)c2=O)c2c(C)n(C)n(-c3ccccc3)c2=O)s1	-1.44	0.67
CC1Cc2cc(S(=O)(=O)NC3CCCC3)ccc2N1C(=O)C1CC1 (configuration not stated)	nt	0.33
CN(C)CCn1c2c(c(SCC(=O)Nc3ccccc3F)nc1=O)CCC2	nt	1.51
COc1ccc(C2NCC(c3ccc([N+](=O)[O-])cc3)O2)cc1 (configuration not stated)	1.11	nt
O=C(C1=C(Nc2ccc(F)c(Cl)c2)c2ccccc2S1(=O)=O)N1CCOCC1	nt	0.73
CCCc1cc(=O)n2[nH]c(-c3ccc(OC)cc3)cc2n1	-1.38	nt
O=C(CC1(O)C(=O)Nc2ccc(Br)cc21)c1ccco1 (configuration not stated)	nt	1.14
CCCN(CCC)S(=O)(=O)c1cnc[nH]1	-1.66	1.45
COCC(=O)N1CCN(c2nc3cc(Br)ccc3n3cccc23)CC1	1.72	-0.21
NC(=O)CSc1nc2c(sc3ccccc32)c(=O)n1CCCC(=O)NCC1CCCO1 (configuration not stated)	0.1	nt
Cc1nc(NCCO)c2c3c(sc2n1)CCCC3	-1.06	1.18
Cc1cc2n(n1)CCCN2CC(=O)NCc1cccs1	nt	0.21
NC(=O)c1c(NC(=O)C2CCCN(C(=O)c3ccc4c(c3)OCCO4)C2)sc2c1CCCC2 (configuration not stated)	-0.86	-0.88

Whole records, quoted from the list. Values in the order: CDC25B CDK2 inh | TAR Tat displ
`Cc1cc2n(n1)CCCN2CC(=O)NCc1cccs1` across the screens: nt | 0.21
`COCC(=O)N1CCN(c2nc3cc(Br)ccc3n3cccc23)CC1` across the screens: 1.72 | -0.21

(list continues)
SMILES	CDC25B CDK2 inh	TAR Tat displ
CCC1=Nc2cc(C(=O)NCC3CCCO3)ccc2Sc2ccc(Br)cc21 (configuration not stated)	-1.54	0.36
CCCCN1CCCCC1C(=O)Nc1c(C)cccc1C (configuration not stated)	nt	-0.41
CCOC(=O)Nc1ccc(N2CCn3c(nc4ccccc43)C2)cc1	-2.32	-3.76
c1ccc2c(c1)OCC(c1nnc3sc(-c4cc5ccccc5o4)nn13)O2 (configuration not stated)	-2.16	1.93
CC(C)c1cc(=O)n2[nH]c(NCc3ccc(Cl)cc3)nc2n1	-1.89	-0.51
COc1ccc(C2=NOC(C(=O)Nc3cc(Br)ccc3O)C2)cc1OC (configuration not stated)	-0.76	0.56
CCCCSc1nnc(NC(=O)c2nn(-c3ccc(F)cc3)ccc2=O)s1	1.36	0.77
CCCOC(=O)C1C2C=CC3(CN(c4ccc(C)cc4)C(=O)C13)O2 (configuration not stated)	0.02	0.42
O=C(NC1CCCCCC1)C1CCC(CNc2c(N3CCCCC3)c(=O)c2=O)CC1 (configuration not stated)	-1.06	nt
Cc1cc(C)c2c(-n3cccc3)nn(Cc3ccc(C(=O)NCC4CCCO4)cc3)c2n1 (configuration not stated)	nt	0.25
Cc1nnc(NC(=O)c2csnn2)s1	0.82	-0.67
CCC(C)NS(=O)(=O)c1ccc2c(c1)NC(=O)CO2 (configuration not stated)	nt	2.46
O=S1(=O)CC2C(C1)N(c1ccccc1)C(=S)N2c1ccccc1 (configuration not stated)	-0.99	nt
O=C(CCc1nc(CN2CCN(S(=O)(=O)c3ccc(F)cc3)CC2)no1)N1CCCC1	nt	-2.21
O=C(O)C(CCCCN1C(=O)c2ccccc2C1=O)N1C(=O)c2ccccc2C1=O (configuration not stated)	0.79	nt
CN1C(=O)c2ccccc2C(C(=O)NCc2cccs2)C1c1cccs1 (configuration not stated)	-1.02	1.67
CC(=O)NC(Cc1c[nH]c2ccccc12)C(=O)O (configuration not stated)	-1.5	nt
O=C(c1ccco1)N1CCN(C(=O)c2cc3c(s2)-c2ccc(Cl)cc2SC3)CC1	-1.79	0.84
O=C(CSc1nc(-c2ccccc2)nc2cc(=O)[nH]n12)Nc1cccc(F)c1	nt	-0.04
Cn1c(=O)c2ccn(CC(=O)O)c2n(C)c1=O	1.42	0.71

Looked up one by one from above:
SMILES	CDC25B CDK2 inh	TAR Tat displ
Cn1c(=O)c2ccn(CC(=O)O)c2n(C)c1=O	1.42	0.71
O=S1(=O)CC2C(C1)N(c1ccccc1)C(=S)N2c1ccccc1 (configuration not stated)	-0.99	nt
Cc1nnc(NC(=O)c2csnn2)s1	0.82	-0.67
O=C(c1ccco1)N1CCN(C(=O)c2cc3c(s2)-c2ccc(Cl)cc2SC3)CC1	-1.79	0.84

Continuation:
SMILES	CDC25B CDK2 inh	TAR Tat displ
CCOC(=O)CN1C(=O)C(O)(CC(=O)c2ccc3c(c2)OCO3)c2ccccc21 (configuration not stated)	1.94	3.68
CC1CCCC(NC(=O)C2CC3CCCN3C23C(=O)Nc2ccccc23)C1C (configuration not stated)	nt	0.34
CCN1C(=O)C2(c3ccccc31)C(C(=O)Nc1ccc(Cl)cc1F)CC1CSCN12 (configuration not stated)	nt	0.62
O=C1CSC(c2ccccc2Br)N1c1ccc(Cl)cn1 (configuration not stated)	-1.32	nt
CCOC(=O)c1cc(CO)cc(C(=O)OCC)c1	-2.03	nt
Brc1ccc(CSc2nnc(Cc3c[nH]c4ccccc34)o2)cc1	-0.11	nt
CCOCCCNC(=O)NCCc1csc(C)c1C	nt	-0.66
CC1CCc2c(sc(NC(=O)c3ccco3)c2C(=O)O)C1 (configuration not stated)	-0.59	-1.15
O=C(ON/C=N/c1ncc(-c2ccc(Br)s2)s1)c1ccc([N+](=O)[O-])cc1	-2.4	nt
CSc1ccc(C2C(C#N)=C(N)Oc3c2ccc2ccccc32)cc1 (configuration not stated)	-0.13	-0.49

Reprinted from the part before: 3 entries, followed by the next part.
SMILES	CDC25B CDK2 inh	TAR Tat displ
CC1CCc2c(sc(NC(=O)c3ccco3)c2C(=O)O)C1 (configuration not stated)	-0.59	-1.15
O=C(ON/C=N/c1ncc(-c2ccc(Br)s2)s1)c1ccc([N+](=O)[O-])cc1	-2.4	nt
CSc1ccc(C2C(C#N)=C(N)Oc3c2ccc2ccccc32)cc1 (configuration not stated)	-0.13	-0.49
COC(=O)c1ccccc1NS(=O)(=O)c1c(C(=O)OC)sc2ccccc12	nt	-0.04
Cc1cc(NC(=O)c2n[nH]c(=O)c3ccccc23)ccc1-n1cnnn1	1.36	1.57
CCn1nccc1C1CCCN1C(=O)c1cc2nc(-c3cccs3)cc(C(F)(F)F)n2n1 (configuration not stated)	-0.62	1.14
O=C(CCc1nnc2ccc(N3CCCCC3)nn12)N1CCOCC1	nt	-1.03
OC1(C(F)(F)F)CC(c2ccc3c(c2)Nc2ccccc2S3)=NN1 (configuration not stated)	-1.22	nt
Cc1cc(Cl)ccc1NS(=O)(=O)c1cc(-c2onc(C)c2C)ccc1C	nt	1.06
CN(C)c1cc(NCc2ccccc2)c2c3c(onc13)-c1ccccc1C2=O	-1.36	-1.18
CN(C)CCNS(=O)(=O)c1ccc(NC(=O)N2CCCC2)cc1	nt	1
Cc1cc(-c2c(C)n([O-])c(C)c(C)[n+]2=O)ccc1F	-2.07	nt
COc1ccc(S(=O)(=O)N2CCN(S(=O)(=O)c3ccccc3)CC2)cc1	0.52	-0.15
O=S(=O)(NCc1cccnc1)c1ccc(N2CCCCS2(=O)=O)cc1	nt	2.26
CC(C)(C)c1ccc(-c2n[nH]c(=S)n2Cc2ccco2)cc1	-0.18	nt
O=C(c1c2c(nc3ccccc13)C(=O)N(C1CCCCC1)C2)N1CCN(c2ccccn2)CC1	nt	0.47
Cc1nc2c3ccccc3n3c(CCCC(=O)N4CCOCC4)nnc3n2n1	-0.61	-0.69
CC(C)S(=O)(=O)/C(C#N)=C/Nc1cccnc1	-2.24	nt
COc1cc(S(=O)(=O)N2CCN(Cc3ccc4c(c3)OCO4)CC2)c(OC)cc1Cl	-0.5	2.25
CCCNC(=O)Cn1nc(CC)n2c(cc3occc32)c1=O	-1.66	2.57
Cc1cc2c(cc3c(SCc4nc(-c5ccccc5)oc4C)nnc(C)n32)o1	nt	1.79
O=C1Nc2ccccc2/C1=C/c1ccc2c(c1)CCO2	-1.06	nt
Clc1cccc(N2CCN(C3=NCCN3)CC2)c1	-0.67	0.68
COc1ccc(-n2c(Cc3cccn3C)nnc2SCC(=O)N2CCc3ccccc32)cc1	-0.19	-0.26
Cc1cc(C)c2oc(C(=O)N3CCN(C)CC3)cc(=O)c2c1	0.28	0.02
CC1CN(S(=O)(=O)c2ccc(Cl)cc2)c2ccccc2NC1=O (configuration not stated)	-1.17	-1.01
